# Mtb hypoxia inh: reduces hypoxia-regulated biosensor signal in M. tuberculosis; hit rate 0.1% among 300,000; M. tuberculosis hypoxia-regulated fluorescent reporter, fluorescence; fluorescence inhibition, % (concentration not given with the values);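 active = 35 to 45% if threefold the growth effect, above 45% if 1.5-fold the growth effect; inactive = the rest, general growth blockers included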;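 note: wells of about 50 µL received 100 nL stock; 0% = vehicle wells and 100% = reference inhibitor wells; whole bacteria with a GFP reporter of the hypoxia response; strong numbers were not always called active; many hits fall short of the cut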
# PrP UTR inh: suppresses PrP 5' UTR mRNA reporter expression | cell-based PrP 5' UTR mRNA reporter, plate reader | inhibition, % (concentration not given with the values) | hit rate 0.35% among 340,000;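 active = every replicate at 50% or more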;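 note: 0 = median of the neutral control wells; tested in H4 reporter cells; numbers are from one replicate; inactives centre near -14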
# BJeLR viability: BJeLR cell viability loss; inhibition, % (test concentration not listed); BJeLR (HRASV12) viability, CellTiter-Glo ATP luminescence, 48 h; reference of the scale not given here; hit rate 0.17% among 300,000;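 active = replicate mean above 50%; inconclusive = above 50% but judged a plate artefact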;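 note: 50 nL library stock added to about 25 µL; numbers are from one replicate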
# RN4220 kill: kills Staphylococcus aureus RN4220. hit rate 0.33% among 330,000. S. aureus RN4220 growth, OD600, 16 h. inhibition, % (no concentration beside the values);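 active = z-score of -3 or lower and OD600 up to 0.18 on both plates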;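 note: plate controls were untreated cells for no effect and reference antibiotic for full effect; stock transfer was 100 nL into about 80 µL; one replicate is shown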
# Sa ugtP lethal: compounds lethal to S. aureus RN4220 ugtP deletion mutant; OD600 growth, 16 h; some inactives read as strong as hits; growth inhibition, % (concentration not given with the values); hit rate 0.54% among 330,000; AID 1259309;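 active = z-score under -3 and OD600 up to 0.15 on both plates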;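 note: plate controls were untreated wells for no effect and antibiotic for full effect; wells of about 80 µL received 100 nL stock; the first replicate is given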
# Bead autofluor: counter-screen for toxin protease inhibitors: compound fluorescence; fluorescence intensity (concentration not given with the values); compound autofluorescence counterscreen, microsphere flow cytometry; active compounds read high; AID 624483; hit rate 3.1% among 360,000;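 active = at least 3 SD above the mean of all compounds, about 16000 in these data; inconclusive = too few beads counted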;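 note: 100 nL of 1 mM stock went into each well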
# Mtb hypoxia inh growth: second read-out of Mtb hypoxia inh, no call of its own (marks repeat the call); growth inhibition, %; measured here: M. tuberculosis growth (absorbance);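 0% = vehicle and 100% = reference antibiotic; read after six days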
# Active calls of the source: *; ? = inconclusive; / = no result given.
SMILES,Mtb hypoxia inh,Mtb hypoxia inh growth,PrP UTR inh,BJeLR viability,RN4220 kill,Sa ugtP lethal,Bead autofluor
Cc1ccnc(NS(=O)(=O)c2ccc(N=CC3=C(O)CC(C)(C)CC3=O)cc2)n1,12,26,-9,-6,2.6,6,22067*
Cc1cccc(C)c1NC(=O)c1ccc(CN2CCc3ccccc3C2)cc1,-3,-4,-17,6,-2.0,13,3377
CC(Oc1ccc2c(=O)c(-c3ccc(Cl)cc3)c(C(F)(F)F)oc2c1)C(=O)O (stereo not drawn),4,1,-15,0,3.9,1,5488
CCn1nc(C)cc1C(=O)NC1CCCc2c1cnn2-c1ccc(C)c(C)c1 (stereo not drawn),10,8,-14,1,3.7,2,5697
O=C(O)Cc1cn(Cc2ccc(F)cc2)c2ccccc12,9,11,-8,0,1.6,3,1889
COc1ccc(C)cc1NC(=O)c1nnn(Cc2cc(C)ccc2C)c1N,/,/,-18,-18,7.6,10,6318
CN(C)C(=O)CSc1nnc([C@H](Cc2c[nH]c3ccccc23)NC(=O)OC(C)(C)C)o1,2,8,-9,10,1.8,1,?
O=C(OCc1ccc(COC(=O)c2ccc(O)cc2)cc1)c1ccc(O)cc1,7,1,1,5,5.2,6,4156
Cn1c(-c2ccc(C(=O)c3ccccc3)s2)nc2ccccc21,/,/,-78,4,3.7,11,5056
Cc1nc(N=Nc2ccc(O)cc2)n[nH]1,6,11,-42,6,1.6,4,4082
COc1ccc(-c2nnc(SCC(=O)Nc3cc(C)on3)n2C)cc1OC,-7,3,-14,10,-3.2,0,8915
Cn1c(=O)c(N)c2c3c(c(Br)ccc31)C(=O)c1ccccc1-2,2,-5,-12,-1,11,11,3760
O=[N+]([O-])c1nn(-c2ccc3c(c2)OCCO3)n(O)c1=NC1CCCC1,5,14,-28,6,5.5,4,5958
O=C(O)C/C(=C\c1ccc(N2CCOCC2)c([N+](=O)[O-])c1)c1nc2ccccc2s1,11,2,-12,-6,12,5,4708
COc1ccc(NC(=O)c2ccccc2O)c(OC)c1,10,11,-43,-6,0.6,-11,18765*
COc1ccc(-c2nnc(NC(=O)C(C)C)s2)c(OC)c1,2,2,-71,-14,6.2,4,5896
c1ccn(CCc2ccncc2)c1,20,-2,-19,/,0.3,7,3851
CC(=O)NC(Cc1ccc(C)cc1)C(=O)NC1CCN(C(=O)NCc2ccccc2)CC1 (stereo not drawn),8,-4,-35,-13,0.8,9,3532
O=C(Nc1cccc(S(=O)(=O)NC2=NCCC2)c1)c1ccc(C(F)(F)F)cc1,1,8,-24,/,2.2,10,3965
O=[N+]([O-])c1ccc2nc(NN=Cc3ccc(O)cc3)sc2c1,4,2,-23,/,-8.8,-26,4590
CC1=CCC2C(=O)N(Cc3ccccc3)C(=O)C2C1 (stereo not drawn),12,8,-9,-10,6.5,1,3016
O=C(c1ccc(Br)cc1)N1CCCc2ccccc21,12,8,-7,-4,5.9,13,3898
Cc1ccc(C(OCC(C)(C)C[N+](C)(C)C)c2ccccc2)cc1 (stereo not drawn),5,8,-19,3,1.3,24,4456
Cc1cc([N+](=O)[O-])nn1CCCC(=O)NCc1ccccc1,8,6,-12,-8,4.4,9,9791
C=CCNC(=O)Nc1ccc(Br)cc1Cl,-8,-11,-61,-1,1.4,5,2184
COC(=O)c1cc(NS(=O)(=O)c2cccc(Cl)c2)ccc1N1CCOCC1,11,4,-6,4,6.6,1,3447
CN(C)S(=O)(=O)c1cccc(NC(=O)c2ccc(N3CCCC3=O)cc2)c1,2,10,/,/,-3.7,-5,5685
CC(C)C(=O)Nc1ccc([N+](=O)[O-])cc1Br,8,11,-12,-7,6.4,7,2468
COc1cccc(C2c3[nH]c4ccccc4c3C[C@H]3C(=O)N(C)CC(=O)N23)c1 (stereo partly drawn),1,5,-22,-5,1.7,0,3426
O=C(NC(n1ccc(=O)[nH]c1=O)C(Cl)(Cl)Cl)C12CC3CC(CC(C3)C1)C2 (stereo not drawn),-2,2,-11,5,7.6,11,4215
Cc1[nH]c2ccccc2c1C(=O)CN1CCN(C/C=C/c2ccccc2)CC1,/,/,-7,5,-5.6,-7,4727
Cc1ccc(C)c(S(=O)(=O)N2C(=S)NC(=O)C2C(C)C)c1 (stereo not drawn),/,/,-6,-3,14,-7,2105
CC(=O)Nc1ccc(Oc2ccc3nc(C)[nH]c3c2)cc1,/,/,-7,-2,0.7,6,2702
CC1CCCCC1NC(=O)Cn1nc(-c2ccccc2)ccc1=O (stereo not drawn),3,4,-5,5,2.1,3,8657
CCC1CCC(C(=O)NC(C(=O)Nc2ccc3c(c2)OCCO3)C(C)C)CC1 (stereo not drawn),5,9,-23,-5,3.7,1,3842
Cc1ccc(S(=O)(=O)NCc2ccc(C(=O)N3CCN(c4ccccc4)CC3)cc2)cc1,5,-1,-10,2,1.5,-2,4061
O=C(c1nc2ncccn2n1)N1CCN(c2ccccc2)CC1,5,7,-6,-5,-15,-7,3124
Nc1ccc2oc(-c3cc(Br)ccc3Cl)nc2c1,13,6,/,12,16,-4,11267
CCc1ccc(CN2CCC(N3CCC(C(=O)N4CCCC4)CC3)CC2)o1,8,0,-21,11,4.9,2,5962
CC1(C)CC(=O)C(N=Nc2cc3c(cc2[N+](=O)[O-])OCCO3)=C(O)C1,0,9,-20,2,8.2,9,3229
Fc1ccc(CN2CCC3C=CCc4cccc(c43)C2)cc1 (stereo not drawn),0,3,/,/,4.3,3,/
CCCCN(C(=O)c1cc2ccccc2o1)c1c(N)n(CCC)c(=O)[nH]c1=O,8,5,-11,-6,2.1,-4,2076
COc1ccc(S(=O)(=O)N2CCN(C3CC4CCC3C4)CC2)cc1 (stereo not drawn),2,13,-8,-2,2.1,6,5917
Fc1ccc(-c2cc(C(F)(F)F)nc(NCC3CCCO3)n2)cc1 (stereo not drawn),/,/,-20,9,-1.8,-3,5448
N#CCC(=O)Nc1ccc(C(=O)OCC(=O)c2ccc3c(c2)OCO3)cc1,10,5,-52,-4,1.8,6,4414
CCOc1ccc(NC(=O)NC2CCCc3ccccc32)cc1 (stereo not drawn),12,0,-8,6,1.0,-5,5869
O=c1o[nH]c(-c2ccccc2)c1-c1ccccc1,3,0,/,-5,-0.7,-2,/
COCCNC(=O)CCSc1nc(-c2ccc(OC)cc2)cc(C(F)(F)F)n1,/,/,0,-1,1.2,-2,2886
Cc1ccccc1OCCN1C(=O)c2ccccc2C1=O,8,7,-54,1,5.1,-4,11757
CC(C)CC(=O)N=C1SC2CS(=O)(=O)CC2N1Cc1ccccc1 (stereo not drawn),-3,-5,-9,1,6.5,7,2060
COc1ccccc1CC(=O)NNC(=O)c1ccco1,3,2,-7,-3,-1.4,3,5953
Cn1c2ccc(CC(=O)O)cc2c2cc(CC(=O)O)ccc21,5,8,-10,1,3.9,5,8166
Cc1nn2c3ccccc3nc2n(C)c1=O,/,/,-12,-4,0.1,0,2477
C=CCn1c(SCC(=O)NC2CCCCC2)nnc1-c1ccccn1,9,10,-8,7,4.9,-2,4669
CCCCCN(C(=O)CCC(=O)OCc1ccccc1C(F)(F)F)c1c(N)n(CCCC)c(=O)[nH]c1=O,/,/,-2,7,/,/,4822
CCOC(=O)c1c(NC(=O)CSc2nnc(-c3ccc(Cl)cc3)o2)sc2c1CCC2,-8,6,-23,-2,-2.9,-1,4216
CC(/C=N\NC(=O)c1cc(C)oc1C)=C\c1ccccc1,/,/,-69,-3,/,/,2253
O=C(c1cc(COc2ccc(F)c(F)c2)on1)N1CCN(C2CCCCC2)C(=O)C1,3,5,-17,3,5.2,2,5017
NS(=O)(=O)c1ccc(CCNc2cc(=O)n(Cc3ccc(F)cc3)c(=O)[nH]2)cc1,-2,-2,-24,/,6.9,8,10288
COc1cc(C(=O)NN=C(C)Cn2nc([N+](=O)[O-])cc2C)ccc1O,15,3,/,/,5.9,3,/
# More structures follow:
SMILES,Mtb hypoxia inh,Mtb hypoxia inh growth,PrP UTR inh,BJeLR viability,RN4220 kill,Sa ugtP lethal,Bead autofluor
CN(C)CCNC(=O)c1onc(CSc2ccc(F)cc2)c1C(=O)NCCN(C)C,1,12,-33,6,1.7,-2,3599
O=C(c1ccccc1[N+](=O)[O-])N1CCCC(C(=O)N2CCCCCC2)C1 (stereo not drawn),-1,3,-17,-5,2.4,6,3625
O=C(Nc1nc(-c2ccc3c(c2)OCCO3)cs1)c1ccco1,/,/,-69,-5,/,/,6117
CCc1ccc(OCCNC(=O)c2ccccc2SCc2ccc(F)cc2)cc1,-2,5,-21,-5,3.3,12,10327
CCN1CCN(CC(O)COCC2COc3ccccc3O2)CC1 (stereo not drawn),14,6,-16,16,7.7,7,4116
COc1ccc(CNC(=O)CN(c2ccc(C)cc2)S(=O)(=O)c2c(C)noc2C)cc1,-2,2,-21,2,-2.4,-5,5552
Cc1cn(CC(=O)c2ccccc2)c2ccccc12,/,/,11,14,1.1,4,/
CC(=O)CC(=O)Nc1ccccc1NC(C)=O,/,/,-5,1,1.7,1,3438

# Structures listed so far with fluorine, in the order listed:
SMILES,Mtb hypoxia inh,Mtb hypoxia inh growth,PrP UTR inh,BJeLR viability,RN4220 kill,Sa ugtP lethal,Bead autofluor
CC(Oc1ccc2c(=O)c(-c3ccc(Cl)cc3)c(C(F)(F)F)oc2c1)C(=O)O (stereo not drawn),4,1,-15,0,3.9,1,5488
O=C(O)Cc1cn(Cc2ccc(F)cc2)c2ccccc12,9,11,-8,0,1.6,3,1889
O=C(Nc1cccc(S(=O)(=O)NC2=NCCC2)c1)c1ccc(C(F)(F)F)cc1,1,8,-24,/,2.2,10,3965
Fc1ccc(CN2CCC3C=CCc4cccc(c43)C2)cc1 (stereo not drawn),0,3,/,/,4.3,3,/
Fc1ccc(-c2cc(C(F)(F)F)nc(NCC3CCCO3)n2)cc1 (stereo not drawn),/,/,-20,9,-1.8,-3,5448
COCCNC(=O)CCSc1nc(-c2ccc(OC)cc2)cc(C(F)(F)F)n1,/,/,0,-1,1.2,-2,2886
CCCCCN(C(=O)CCC(=O)OCc1ccccc1C(F)(F)F)c1c(N)n(CCCC)c(=O)[nH]c1=O,/,/,-2,7,/,/,4822
O=C(c1cc(COc2ccc(F)c(F)c2)on1)N1CCN(C2CCCCC2)C(=O)C1,3,5,-17,3,5.2,2,5017
NS(=O)(=O)c1ccc(CCNc2cc(=O)n(Cc3ccc(F)cc3)c(=O)[nH]2)cc1,-2,-2,-24,/,6.9,8,10288
CN(C)CCNC(=O)c1onc(CSc2ccc(F)cc2)c1C(=O)NCCN(C)C,1,12,-33,6,1.7,-2,3599
CCc1ccc(OCCNC(=O)c2ccccc2SCc2ccc(F)cc2)cc1,-2,5,-21,-5,3.3,12,10327

# In the list so far, these have a thiophene ring, fused or not.
SMILES,Mtb hypoxia inh,Mtb hypoxia inh growth,PrP UTR inh,BJeLR viability,RN4220 kill,Sa ugtP lethal,Bead autofluor
Cn1c(-c2ccc(C(=O)c3ccccc3)s2)nc2ccccc21,/,/,-78,4,3.7,11,5056
CCOC(=O)c1c(NC(=O)CSc2nnc(-c3ccc(Cl)cc3)o2)sc2c1CCC2,-8,6,-23,-2,-2.9,-1,4216
